miR-21 reporter – miR-21 reporter, rising signal. HeLa miR-21 FLuc reporter, luciferase, 48 h. Potency, µM (titrated, usually from 38.3 µM), for the others: at the highest dose reporter change, positive = more light. 340,000 tested, under 10 active. AID 2288; active = well fitted rising curve with a large enough effect; inconclusive = small, poorly fitted or top-dose-only effect; inactive = no such curve, though single readings can be large or run the other way;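 note: % of control where 0% means no effect; miR-21 action dims this reporter so a rising signal means less miR-21 action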
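HeLa cells endogenously expressing miR-21, stably carrying CMV-driven firefly luciferase with a downstream miR-21 binding site, 2000 cells/well. Titrations up to approximately 40 uM, 48 hours; luciferase luminescence read.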
GLA inh pH 4.5 – blocks human alpha-galactosidase A at pH 4.5 | P06280 | purified enzyme, 4-MU-alpha-Gal fluorescence, pH 4.5 | activity change, negative = inhibition, % at 105 µM | 230,000 tested, under 10 active | AID 1467; inconclusive = small, poorly fitted or top-dose-only inhibition, or a rising curve; inactive = flat fitted curve, though single readings scatter; no compound was filed as active;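 note: 0% = full activity with enzyme and -100% = basal without enzyme; dose as in the result columns while the protocol names 77 µM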
Rango release inh – prevents RanGTP from dissociating the Rango-importin beta complex | Potency, µM (highest dose often 46.1 µM), inactives show at the highest dose activity change, negative = inhibition | Biochemical FRET Rango-importin beta, RanGTP-induced dissociation | AID 540253 | hit rate 0.071% among 340,000 | O95149+P62826; active means falling FRET ratio curve, often poorly fitted, with flat reads before Ran was added; inconclusive means other falling curves, or compound fluorescence or quenching; inactive means flat or rising ratio curve;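 note: potency is the fitted concentration of half-maximal effect; % of control where 0% means no effect; nearly all actives have a fitted effect of over 45% in size; -100% = wells without RanGTP and RCC1; the record marks most hits as doubtful in a second field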
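Recombinant Rango FRET biosensor (EYFP–snurportin 1 IBB–cerulean CFP10) at 0.1 uM premixed with 0.25 uM importin beta in PBS, 1 mM DTT, 0.02% Tween-20, 0.1% BSA. Compound added 5 min; RanGTP-RCC1 (0.6 uM Ran, 2 mM GTP, 0.2 uM RCC1) then triggers release, read at 45 min.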
Rango-impB inh – prevents formation of the Rango-importin beta complex; Q14974; Rango CFP/YFP FRET sensor + importin beta, 45 min; Potency, µM (doses to about 92.2 µM), for inactives: at the top dose inhibition of complex formation; hit rate 0.031% among 340,000; active = rising FRET ratio curve, often small or poorly fitted; inconclusive = mostly compound fluorescence or quenching in the first reads; inactive = flat curves in all reads;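 note: potency is the fitted concentration of half-maximal effect; 0% = DMSO wells and 100% = buffer wells lacking importin beta; nearly all actives have a fitted effect of over 15% in size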
Target sequence (Q14974 whole entry, looked up): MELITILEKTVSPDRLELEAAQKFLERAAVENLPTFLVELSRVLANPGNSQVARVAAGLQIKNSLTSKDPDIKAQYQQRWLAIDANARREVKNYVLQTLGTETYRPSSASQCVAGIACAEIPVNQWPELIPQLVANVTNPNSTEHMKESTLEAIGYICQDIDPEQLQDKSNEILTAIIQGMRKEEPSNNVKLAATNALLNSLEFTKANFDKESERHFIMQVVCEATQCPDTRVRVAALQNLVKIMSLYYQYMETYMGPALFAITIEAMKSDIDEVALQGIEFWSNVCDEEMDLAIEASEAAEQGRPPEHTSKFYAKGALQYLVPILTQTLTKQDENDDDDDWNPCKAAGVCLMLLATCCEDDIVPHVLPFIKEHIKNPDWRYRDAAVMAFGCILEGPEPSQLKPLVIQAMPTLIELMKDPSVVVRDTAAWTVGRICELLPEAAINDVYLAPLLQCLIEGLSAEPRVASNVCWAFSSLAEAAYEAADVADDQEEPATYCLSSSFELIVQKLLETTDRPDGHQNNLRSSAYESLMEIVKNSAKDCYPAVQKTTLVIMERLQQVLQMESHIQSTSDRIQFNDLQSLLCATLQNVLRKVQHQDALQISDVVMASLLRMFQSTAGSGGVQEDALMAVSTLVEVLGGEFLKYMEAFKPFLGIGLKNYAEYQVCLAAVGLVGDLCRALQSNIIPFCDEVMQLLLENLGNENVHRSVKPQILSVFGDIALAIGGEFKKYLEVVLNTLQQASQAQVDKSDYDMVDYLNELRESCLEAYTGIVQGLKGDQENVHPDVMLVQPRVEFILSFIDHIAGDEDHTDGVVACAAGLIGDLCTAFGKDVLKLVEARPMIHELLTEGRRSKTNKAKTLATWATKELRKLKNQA
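FRET biosensor (snurportin 1 IBB flanked by EYFP and cerulean), 50 nM, with compound 5 min, then 0.125 microM importin beta in PBS, 1 mM DTT, 0.02% Tween-20, 0.1% BSA. CFP/YFP ratio read after 45 min at room temperature; pre-read flags interference.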
Numbers without * were called inactive; ? = inconclusive; . = not tested or not shown; & = joins results of further samples. Some of the compounds tested; count on the stated rates, not on these rows.

SMILES	miR-21 reporter	GLA inh pH 4.5	Rango release inh	Rango-impB inh
CCN(CC)CCCN(Cc1cc2cc3c(cc2[nH]c1=O)OCO3)C(=O)Nc1ccccc1OC	-9%	-1	-10%	0.7%
COc1ccccc1NC(=O)N1C2CCCC1CC(NC(=O)c1ccccc1)C2 (configuration not stated)	0%	2	1%	-2.2%
COc1cccc(NC(=O)CSc2nnnn2C(C)C)c1	-10%	-6	6%	11%
Cn1c(=O)[nH]c(=O)c2c1nc(Br)n2C/C=N/NC(=O)c1ccccc1	-41%	-3	5%	-2.2%
CCCS(=O)(=O)N1CCCC(C(=O)NCc2ccc(C)cc2)C1 (configuration not stated)	-9%	-3	3%	3.1%
O=C(Nc1ccnc(-c2cccnc2)n1)c1ccc(Cl)cc1	-5%	2	1%	11%
Cc1nc(-c2ccc(Cl)cc2)sc1C1(C)CC(c2ccc([N+](=O)[O-])cc2)=NO1 (configuration not stated)	-1%	3	0%	0.5%
COc1ccccc1C1C2C(=O)N(c3ccccc3)C(=O)C2ON1c1ccccc1 (configuration not stated)	0%	2	-12%	-2.9%
COc1ccc(NC(=O)C2CCN(S(=O)(=O)c3ccc(N4CCCC4=O)cc3)CC2)cc1OC	0%	.	1%	-1.9%
COCCn1c(N)c(C#N)c2nc3ccccc3nc21	-7%	?	?	?
CN1CCN(CC(O)COCCOc2ccc(Br)cc2)CC1 (configuration not stated)	-9%	7	12%	-0.3%
CC(C)(C)NCCCCOc1ccc(F)cc1	0%	2	-7%	-1.3%
O=C(Nc1nc(-c2cccnc2)cs1)c1ccc([N+](=O)[O-])cc1	-5%	-6	-8%	-1.1%
c1cnn(-c2cncc(-n3cccn3)n2)c1	-6%	2	13%	0.4%
CC1CN(Cc2nnc(-c3ccccc3)o2)CC(C)O1 (configuration not stated)	-3%	5	-3%	5.7%

Structures shown so far that contain a nitro group on carbon, in the order listed:
SMILES	miR-21 reporter	GLA inh pH 4.5	Rango release inh	Rango-impB inh
Cc1nc(-c2ccc(Cl)cc2)sc1C1(C)CC(c2ccc([N+](=O)[O-])cc2)=NO1 (configuration not stated)	-1%	3	0%	0.5%
O=C(Nc1nc(-c2cccnc2)cs1)c1ccc([N+](=O)[O-])cc1	-5%	-6	-8%	-1.1%

As entered above.
COc1ccccc1NC(=O)N1C2CCCC1CC(NC(=O)c1ccccc1)C2 (configuration not stated) – Rango release inh: 1%
CN1CCN(CC(O)COCCOc2ccc(Br)cc2)CC1 (configuration not stated) – Rango-impB inh: -0.3%
COc1ccc(NC(=O)C2CCN(S(=O)(=O)c3ccc(N4CCCC4=O)cc3)CC2)cc1OC – Rango release inh: 1%

Later entries:
SMILES	miR-21 reporter	GLA inh pH 4.5	Rango release inh	Rango-impB inh
CCOC(=O)C1CCCN(C(=O)c2cccc(S(=O)(=O)N3CC(C)OC(C)C3)c2)C1 (configuration not stated)	7%	-7	-17%	-6.8%
COc1cc(C2C(C(C)=O)=C(O)C(=O)N2CCc2c[nH]c3ccccc23)ccc1O (configuration not stated)	-9%	-2	6%	2.5%
NC(=NCc1ccc2c(c1)OCO2)NC(=O)c1ccccc1	-8%	7	1%	-1.8%
Cc1cc(C)n(/N=C/c2c[nH]c3ccccc23)c(=O)c1	-6%	-3	3%	-0.4%
Cc1noc(C)c1S(=O)(=O)Nc1ccc(C(=O)NC2CCCCC2C)cc1 (configuration not stated)	-5%	6	1%	3.1%
COc1ccc(OC)c(NC(=O)Cn2cc(C#N)c3ccccc32)c1	-3%	-6	9%	0.6%
Cc1cccc(OCCN2C(=O)C(=O)c3cccc(C)c32)c1	-6%	-4	0%	-0.3%
Cc1oc2ccc(OC(=O)N3CCOCC3)cc2c1C(=O)OC(C)C	12%	3	17%	3.6%
O=C(NNc1ncnc2ccccc12)c1cccc(Cl)c1	-61%	-12	10%	-0.1%
COc1ccc(-c2csc(NC(=O)CCNC(=O)c3ccco3)n2)cc1OC	.	.	26%	5.9%
CCOc1ccc(C(=O)NC2CCN(C(=S)NCc3ccco3)CC2)cc1	5%	0	10%	-1.7%
COC(=O)c1cc(S(=O)(=O)N2CCN(c3ccc(F)cc3)CC2)cn1C	0%&2%	.	-9%	-2.1%
O=C(O)c1ccc(-n2nnnc2SCc2ccccc2Br)cc1	1%	.	-19%	-0.8%
N#Cc1c(NC(=O)CCn2cnc3ccccc3c2=O)oc(-c2ccccc2)c1-c1ccccc1	5%	-7	4%	3.5%
O=C(c1ccccc1[N+](=O)[O-])N1CCCN(C(=O)c2ccccc2[N+](=O)[O-])CC1	-2%	3	-12%	?

Compounds shown so far with an aryl thioether with sulfur outside any ring (two):
SMILES	miR-21 reporter	GLA inh pH 4.5	Rango release inh	Rango-impB inh
COc1cccc(NC(=O)CSc2nnnn2C(C)C)c1	-10%	-6	6%	11%
O=C(O)c1ccc(-n2nnnc2SCc2ccccc2Br)cc1	1%	.	-19%	-0.8%

Next section:
SMILES	miR-21 reporter	GLA inh pH 4.5	Rango release inh	Rango-impB inh
O=C(NCc1ccco1)c1cnc2n(c1=O)CCS2	1%	4	-3%	0.1%
CC(C)Cn1c(N)c(C(=O)COC(=O)c2cc(S(=O)(=O)N3CCOCC3)ccc2Br)c(=O)n(C)c1=O	.	.	-2%	-0.3%
O=C(Nc1ccccc1)Nc1ccccc1NS(=O)(=O)c1cccs1	-4%	-7	4%	0.0%
CCCc1cc(C(=O)Nc2ccn(Cc3ccc(C)cc3)n2)no1	-6%	-7	7%	?
O=C(NCCN1CCCOC1=O)C(=O)NCCN1CCCOC1=O	0%	-16	7%	-4.3%
COC(=O)CC1C(=O)NCCN1C(=O)CSc1nnc(Nc2ccc(OC)cc2)s1 (configuration not stated)	-3%	-4	12%	-3.5%
COc1ccc(S(=O)(=O)N2CCCN(CC(=O)Nc3ccc(NC(C)=O)cc3)CC2)cc1	-5%&-5%	.	-7%	0.8%
COC(=O)c1ccsc1NC(=O)CCc1ccccc1	-61%	.	0%	-0.8%
CCCCn1c(N)c(N(C)C(=O)c2cc3c(F)cccc3s2)c(=O)[nH]c1=O	.	.	-2%	-0.6%
COc1ccc(-c2nnn(CC(=O)N(CCN3CCOCC3)C(C(=O)NC3CCCC3)c3ccco3)n2)cc1 (configuration not stated)	-1%	-13	23%	0.2%
CC1(C)Cc2c(c(N3CCOCC3)nc3sc4c(NCc5ccco5)nnnc4c23)CS1	-17%	-5	3%	-2.4%
Cc1c(Cl)c([N+](=O)[O-])nn1CC(=O)N1CCCC1	1%	8	16%	0.8%
CSc1ccccc1NC(=O)c1ccccc1	-12%	0	-6%	0.2%
Cc1ccc(NC(=O)CN(C)C(=O)CSc2nc3ccccc3c(=O)n2CCO)cc1	.	.	28%	5.6%
COc1ccccc1CNC(=O)C(C)n1nc(C)c2c(C)n(-c3ccccc3)nc2c1=O (configuration not stated)	10%	.	1%	0.0%
Cc1cc(C)nc(NC(=O)c2ccc(Cl)cc2)n1	-2%	4	-16%	-0.5%
O=C(NC(=S)Nc1ccc(S(=O)(=O)Nc2nccs2)cc1)c1ccc(F)c(F)c1	-8%	-3	1%	-1.1%
O=C(COC(=O)/C=C/c1ccccc1)Nc1cccc(Oc2ccccc2)c1	-2%	-13	9%	-0.6%
CCC1SC2=NC(C)=C(C(=O)OC)C(c3ccc(C)cc3)N2C1=O (configuration not stated)	-3%	-3	3%	0.1%
COc1ccc(OCC(=O)Nc2ccc(S(=O)(=O)Nc3cc(C)on3)cc2)cc1	.	.	-4%	-0.3%
COc1ccc(/C=N/n2cc(-c3ccc(OC)cc3)nc2N)cc1	-3%	-5	-15%	?
O=C(Nc1ccncc1)c1ccc(-c2ccccc2)cc1	-17%	7	8%	-0.3%
Cc1cccc(COCC(Cc2ccccc2)N2CCN(C(=O)c3ccc(C(F)(F)F)cc3)CCC2=O)c1 (configuration not stated)	15%	-6	18%	3.2%
N#Cc1cc2c(nc1S(=O)(=O)Cc1ccccc1)CCCC2	-2%	1	0%	3.8%
CCOc1nc2cnccc2n(CC(=O)Nc2cccc(C)c2)c1=O	-5%	.	7%	0.5%
O=C(Nc1nc2c(s1)CCCC2)c1ccc2ncsc2c1	-26%	1	-13%	-5.8%
Cn1c(SCc2cc(=O)[nH]c3ccccc23)nnc1-c1ccco1	-15%	-12	3%	-0.5%
COc1ccc([C@H]2Oc3cc(O)cc(O)c3C(=O)C2[C@@H]2C(=O)c3c(O)cc(O)cc3O[C@@H]2c2ccc(OC)cc2)cc1 (some centres not stated)	?	-6	3%	3.8%
Clc1cc(Cl)c(Cl)cc1Cl	.	.	10%	3.0%
Cc1ccc(S(=O)(=O)n2c3ccc(Cl)cc3c3nc(C)sc32)cc1	-15%	-3	45%	-0.6%
O=C(COC(=O)c1ccc(O)cc1O)c1ccc2c(c1)OCCO2	.	.	-13%	-0.9%
COc1ccccc1OCC(=O)Nc1ccc2c(c1)n(C)c(=O)n2C	-4%	7	5%	2.9%
CC1(C)CC2(CC(C)(C)NC(=O)N2)NC(=O)N1	0%	5	3%	0.5%
O=S1(=O)CCOC[C@H](CC2CCCCC2)N1Cc1ccc(F)cc1	-1%	.	-5%	-4.5%
CCOC(=O)c1ccccc1NC(=O)C1CCN(c2ncnc3sc(C)c(C)c23)CC1	.	.	6%	-0.3%
CCOC(=O)c1cc(-c2ccccc2)sc1NC(=O)C(C)N1C(=O)NC(C)(c2ccc(Cl)cc2)C1=O (configuration not stated)	13%	-3	-9%	-0.3%
[O-][n+]1c2c(nn1-c1ccc(Cl)c(Cl)c1)-c1nonc1CC2	-2%	0	-4%	-1.5%
CC1CN(Cc2ccccc2)C(=O)N(c2ccccc2)C1=O (configuration not stated)	.	.	-3%	-1.4%
CC(=O)Nc1cc(C(C)(C)C)c(O)c(C(C)(C)C)c1	-5%	-3	1%	2.1%
O=C(COC(=O)c1cccc(NS(=O)(=O)/C=C/c2ccccc2)c1)Nc1ccccc1OC(F)F	-2%	-16	8%	-0.4%
Cc1nn(C)c(=O)n1-c1ccc(Oc2ccccc2)cc1	-10%	2	7%	-0.5%
COc1ccc(-c2cc(C(=O)N3CCN(c4ncccn4)CC3)c3ccccc3n2)c(OC)c1	8%	2	14%	-1.8%
COC(=O)C1=C(N)c2c(F)cccc2C1(C#N)c1ccccc1 (configuration not stated)	9%	12	31%	-2.5%
O=C(/C=C/c1ccccc1[N+](=O)[O-])NCc1ccccc1Cl	-25%	-2	-12%	-4.4%
COc1cccc(-c2nnc(SCc3ccc(C#N)cc3)n2Cc2ccco2)c1	10%	11	-5%	-2.3%
C[C@H]1CC[C@@]2(O[C@@H](CCO)C[C@@H](O)[C@@H]2O)O1	0%	4	-9%	-1.1%
CCN1CCN(C(=O)c2sc3ncnc(N4CCc5ccccc5C4)c3c2C)CC1	1%	3	-6%	-0.6%
Cc1cccc(Nc2ncnc3onc(-c4cccc(Cl)c4)c23)c1	-9%	.	-18%	6.4%
COc1ccc2cc(C#N)c(N3CCOCC3)nc2c1	5%	.	-12%	?
O=c1[nH]c2cc3c(cc2cc1CN(Cc1nnnn1CC1CCCO1)C1CCCCC1)OCO3 (configuration not stated)	-8%	2	?	?
OCCCN=c1cc(-c2ccccc2)oc2ccc(Cl)cc12	3%	-2	5%	0.4%
COc1ccccc1N1CCN(C(=O)c2c(-c3ccccc3)noc2C)CC1	24%	?	10%	-0.1%
COc1cccc(CN(C)C(=O)CCc2nnc(-c3ccsc3)o2)c1	-10%	-11	1%	4.2%
Oc1ccc(-c2cn3c(n2)SCC3)cc1	-18%	1	-1%	0.0%
Cc1ccc2c(c1)C1CC(C)(O2)N(c2cccc(C(=O)NCc3ccccn3)c2)C(=O)N1 (configuration not stated)	4%	.	12%	2.8%
O=S(=O)(c1ccccc1)C1Cc2ccccc2C1Cl (configuration not stated)	.	.	19%	-2.9%
Nc1nc(N)c2ncc(C(=O)CCc3ccccc3)nc2n1	-12%	4	?	?
CN1CCN(C(=S)c2ccc(N(C)C)cc2)CC1	-7%	-5	-5%	0.6%
CN(C)C1=NCCN1CCCC1CCCCC1	.	.	0%	-2.3%
COc1ccc(S(=O)(=O)NCCc2ccccc2)cc1	-15%	2	2%	-3.7%
